Vaccinia inh = Vaccinia orthopox stage-specific inhibition; Vaccinia-infected cells, mCherry/Venus stage reporter fluorescence; active compounds read low; some inactives read as strong as hits; 89,000 tested, 0.01% active; activity change (mCherry), % (no concentration beside the values);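 active = mCherry past -33% and 40 or more points under the early reporter, replicates agreeing; inconclusive = past -33% without that gap or agreement; tested in A549 cells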;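 note: scaled between vehicle wells and reference inhibitor wells; 23 nL library stock went into each well; one replicate is shown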
Vaccinia inh Venus = second read-out of Vaccinia inh, no call of its own (marks repeat the call); activity change (Venus), %; measured here: Venus reporter, other viral stage;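 negative = less Venus signal; first of two replicates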
* = called active by the depositor; ? = inconclusive; · = no result given; & = joins results of further samples.

SMILES	Vaccinia inh	Vaccinia inh Venus
O=C(C[C@H]1CC[C@@H]2[C@H](COC[C@@H](O)CN2C(=O)c2ccccc2F)O1)N1CCN(c2ccccc2)CC1	1	12
Cc1noc(C)c1NC(=O)Nc1ccc2c(c1)C(=O)N([C@@H](C)CO)C[C@H](C)[C@H](CN(C)CC1CCCCC1)OCCCC[C@@H](C)O2	3	1
C[C@H]1CCCCO[C@H](CN(C)Cc2ccccc2)[C@@H](C)CN([C@@H](C)CO)C(=O)c2cc(NS(=O)(=O)c3cccs3)ccc2O1	?	·
CC(C)NC(=O)Nc1ccc2c(c1)C(=O)N([C@H](C)CO)C[C@H](C)[C@H](CN(C)Cc1ccc(C(F)(F)F)cc1)OCCCC[C@@H](C)O2	-27	-13
C[C@@H]1CCCCO[C@@H](CN(C)C(=O)Nc2ccc3c(c2)OCO3)[C@H](C)CN([C@@H](C)CO)C(=O)c2cc(NC(=O)CCCN(C)C)ccc2O1	-5	-7
Cc1noc(C)c1NC(=O)N(C)C[C@H]1OCCCC[C@H](C)Oc2ccc(NC(=O)Nc3ccc(C(F)(F)F)cc3)cc2C(=O)N([C@H](C)CO)C[C@@H]1C	-1	6
Cc1noc(C)c1NC(=O)N(C)C[C@H]1Oc2ccc(NC(=O)CCC(F)(F)F)cc2C(=O)N([C@@H](C)CO)C[C@@H]1C	12	9
Cc1nn(C)cc1NC(=O)C[C@H]1CC[C@H]2[C@H](COc3ccc(NC(=O)NC(C)C)cc3C(=O)N2C)O1	3	5
C[C@H](CO)N1C[C@H](C)[C@H](CN(C)Cc2ccccn2)Oc2cc(-c3cccc(C#N)c3)ccc2S1(=O)=O	9	6
CCC(=O)N1[C@H](CO)[C@H](c2ccccc2-c2cccc(C)c2)[C@@H]1C#N	6	1
C[C@@H](O)C#Cc1ccc2c(c1)O[C@@H](CN(C)Cc1ccccn1)[C@@H](C)CN([C@@H](C)CO)S2(=O)=O	19	12
C[C@@H](O)C#Cc1ccc2c(c1)O[C@H](CN(C)C(=O)Nc1ccccc1)[C@@H](C)CN([C@@H](C)CO)S2(=O)=O	7&2	8&-6
O=C(Nc1ccccc1F)N1CCCCN2[C@H](C1)[C@@H](c1ccc(C3=CCCC3)cc1)[C@@H]2CO	10	-2
C[C@@H]1CN([C@@H](C)CO)S(=O)(=O)c2ccc(-c3ccccc3)cc2O[C@@H]1CN(C)C(=O)c1ccc2c(c1)OCO2	?	·
CO[C@@H]1CN(C)C(=O)c2cc(NS(=O)(=O)c3cccc(Cl)c3)ccc2OC[C@H](C)NC[C@H]1C	-2	4
C[C@H]1CN([C@@H](C)CO)C(=O)c2cccc(NC(=O)c3nc4ccccc4s3)c2O[C@H]1CN(C)S(C)(=O)=O	2	16
O=C(C[C@H]1CC[C@H](NC(=O)Nc2ccc(C(F)(F)F)cc2)[C@H](CO)O1)NCc1ccccn1	1	6
C[C@@H]1CN([C@H](C)CO)C(=O)c2cc(NC(=O)c3ccncc3)ccc2O[C@@H](C)CCCCO[C@@H]1CN(C)S(=O)(=O)c1ccc(Cl)cc1	1	2
C[C@@H]1CN([C@@H](C)CO)C(=O)c2c(c3ccccc3n2C)-c2ccccc2CO[C@H]1CN(C)C(=O)Nc1ccc(-c2ccccc2)cc1	-23	-10
COc1ccc(NC(=O)N(C)C[C@@H]2OCCCC[C@@H](C)Oc3ccc(NC(=O)C4CCCCC4)cc3C(=O)N([C@H](C)CO)C[C@H]2C)cc1	-14	-11
O=C(C[C@H]1CC[C@H]2[C@@H](COC[C@H](O)CN2C(=O)Nc2ccc(Cl)cc2)O1)N1CCCCC1	-22	-11
O=C(Nc1ccc(F)cc1)N1C[C@H]2[C@@H](c3ccccc31)[C@H](CO)N2C(=O)Cc1ccccc1	2	1
CCCNC(=O)C[C@H]1CC[C@@H]2[C@H](COC[C@H](O)CN2Cc2cccc(F)c2)O1	0	6
Cc1ccc(S(=O)(=O)N(C)C[C@H]2OCCCC[C@@H](C)Oc3ccc(NS(=O)(=O)c4cccs4)cc3C(=O)N([C@H](C)CO)C[C@@H]2C)cc1	11	5
CC=Cc1ccc2n(c1=O)C[C@H]1[C@H](CO)[C@@H](C(=O)O)[C@@H]2N1S(=O)(=O)c1ccccc1F (mixture of isomers)	4	3
CO[C@H]1CN(C)C(=O)c2ccc(NS(=O)(=O)CC(F)(F)F)cc2OC[C@H](C)N(CCC(F)(F)F)C[C@@H]1C	17	7
O=C(C[C@H]1C[C@H]2c3cc(NC(=O)Nc4ccc(C(F)(F)F)cc4)ccc3O[C@H]2[C@@H](CO)O1)NCc1ccccn1	-6	-7
COCCNC(=O)C[C@H]1C[C@@H]2c3cc(NC(=O)CC4CC4)ccc3O[C@@H]2[C@H](CO)O1	-2	2
O=C(C[C@H]1C[C@@H]2c3cc(NC(=O)NC4CCCC4)ccc3O[C@@H]2[C@H](CO)O1)NCc1cccc(F)c1	5	2
CO[C@@H]1CN(C)C(=O)c2ccc(NS(=O)(=O)c3cccc(Cl)c3)cc2OC[C@H](C)NC[C@H]1C	12	11
CCCC#Cc1cnc2c(c1)C(=O)N([C@H](C)CO)C[C@@H](C)[C@H](CN(C)C(=O)c1cccnc1)O2	18	5
C[C@@H]1CCCCO[C@@H](CN(C)Cc2ccc3c(c2)OCO3)[C@H](C)CN([C@H](C)CO)C(=O)c2cc(NC(=O)CCC(F)(F)F)ccc2O1	-26	-17
N#Cc1cccc(-c2ccc(C3[C@H]4CNC[C@@H]3N4S(=O)(=O)c3ccccc3)cc2)c1 (stereo partly drawn)	25&30	31&16
COc1ccc(NC(=O)Nc2ccc3c(c2)CC(=O)N([C@@H](C)CO)C[C@@H](C)[C@H](CN(C)Cc2ccc(-c4ccccc4)cc2)O3)cc1	-20	-15
CN(C)C(=O)[C@@H]1[C@@H](CO)[C@@H]2Cn3c(ccc(-c4ccncc4)c3=O)[C@H]1N2CC1CCCC1	7	8
CCCN(C)C[C@H]1Oc2cc(-c3cccnc3)ccc2S(=O)(=O)N([C@H](C)CO)C[C@H]1C	3	7
CCCNC(=O)N(C)C[C@@H]1Oc2ncc(-c3ccncc3)cc2C(=O)N([C@H](C)CO)C[C@@H]1C	10&15	0&16
CC(C)NC(=O)N(C)C[C@@H]1Oc2c(NC(=O)C3CCCCC3)cccc2C(=O)N([C@@H](C)CO)C[C@@H]1C	9	11
CCCNC(=O)Nc1ccc2c(c1)C(=O)N(C)C[C@@H](OC)[C@H](C)CN(Cc1cccnc1)[C@@H](C)CO2	6	-3
CNC[C@H]1Oc2ccc(N(C)C)cc2C(=O)N([C@H](C)CO)C[C@H]1C	-1	-2

Full records, looked up by structure. Order of values: Vaccinia inh	Vaccinia inh Venus
COc1ccc(NC(=O)N(C)C[C@@H]2OCCCC[C@@H](C)Oc3ccc(NC(=O)C4CCCCC4)cc3C(=O)N([C@H](C)CO)C[C@H]2C)cc1 is listed as -14	-11
N#Cc1cccc(-c2ccc(C3[C@H]4CNC[C@@H]3N4S(=O)(=O)c3ccccc3)cc2)c1 (stereo partly drawn) is listed as 25&30	31&16

Going on with the list.
SMILES	Vaccinia inh	Vaccinia inh Venus
CCC(=O)N1[C@@H](CO)[C@@H]2c3ccccc3N(C(=O)c3cnccn3)C[C@@H]21	4	4
O=C(c1ccncc1)N1CCCCN2[C@H](C1)[C@@H](c1ccc(C#Cc3ccccn3)cc1)[C@@H]2CO	20	22
C[C@H](CO)N1C[C@H](C)[C@@H](CN(C)S(=O)(=O)c2cn(C)cn2)Oc2ncc(C#CCN(C)C)cc2C1=O	24	5
CC(C)NC(=O)N(C)C[C@H]1OCCCC[C@@H](C)Oc2ccc(NS(=O)(=O)c3ccccc3)cc2C(=O)N([C@H](C)CO)C[C@@H]1C	15	8
CC(C)NC(=O)Nc1ccc2c(c1)C(=O)N([C@H](C)CO)C[C@H](C)[C@H](CN(C)C(=O)Nc1cccc3ccccc13)O2	26	23
COC(=O)C[C@H]1C[C@H]2c3cc(NC(=O)c4ccc5c(c4)OCO5)ccc3O[C@H]2[C@@H](CO)O1	15	17
Cc1ccc(S(=O)(=O)N(C)C[C@@H]2OCCCC[C@H](C)Oc3ccc(NC(=O)NC(C)C)cc3C(=O)N([C@H](C)CO)C[C@@H]2C)cc1	-22	-17
C/C=C/c1ccc([C@H]2[C@@H](CO)N3CCCCN(C(=O)Cc4cccnc4)C[C@H]23)cc1	-15	-14
CNC[C@H]1Oc2ccc(NS(=O)(=O)c3cn(C)cn3)cc2C(=O)N([C@H](C)CO)C[C@@H]1C	12	11
O=C(C[C@H]1CC[C@H]2[C@@H](COC[C@@H](O)CN2C(=O)Nc2ccc(F)cc2)O1)NCC1CC1	1	3
CC(=O)N1[C@H](C(=O)Nc2ccccc2)[C@@H](CO)[C@@H]2Cn3c(ccc(C4=CCCC4)c3=O)[C@@H]21	-9	-3
C[C@H]1CN([C@@H](C)CO)C(=O)c2cc(C#CC3(O)CCCC3)cnc2O[C@@H]1CN(C)Cc1cncnc1	19	15
COc1ccc(S(=O)(=O)Nc2cccc3c2O[C@@H](CN(C)C(=O)Nc2ccc(F)cc2)[C@@H](C)CN([C@@H](C)CO)C3=O)cc1	23	13
C[C@@H]1CCCCO[C@@H](CN(C)CC2CC2)[C@H](C)CN([C@H](C)CO)C(=O)c2cc(NS(C)(=O)=O)ccc2O1	15	9
COc1ccccc1-c1cnc2c(c1)C(=O)N([C@H](C)CO)C[C@H](C)[C@@H](CN(C)CC1CCOCC1)O2	11	1
O=S(=O)(NCC[C@H]1CC[C@@H](NS(=O)(=O)c2cccc(F)c2)[C@@H](CO)O1)c1cccc(F)c1	21	9
O=C(Nc1ccccc1)N[C@@H]1CC[C@@H](CCn2cc(-c3ccccc3F)nn2)O[C@@H]1CO	7	8
C[C@@H]1CCCCO[C@@H](CN(C)Cc2ccc3c(c2)OCO3)[C@H](C)CN([C@@H](C)CO)C(=O)c2cc(NC(=O)Nc3ccc4c(c3)OCO4)ccc2O1	-5	1
C[C@@H]1CCCCO[C@H](CN(C)C(=O)CCC(F)(F)F)[C@@H](C)CN([C@H](C)CO)C(=O)c2cc(NC(=O)Nc3ccccc3)ccc2O1	4	7
C[C@H]1CN([C@@H](C)CO)S(=O)(=O)c2ccc(C#Cc3ccccc3)cc2O[C@@H]1CN(C)C(=O)Cc1ccccn1	?	·

Grouped by structure, the compounds so far with an aryl methoxy group
SMILES	Vaccinia inh	Vaccinia inh Venus
COc1ccc(NC(=O)N(C)C[C@@H]2OCCCC[C@@H](C)Oc3ccc(NC(=O)C4CCCCC4)cc3C(=O)N([C@H](C)CO)C[C@H]2C)cc1	-14	-11
COc1ccc(NC(=O)Nc2ccc3c(c2)CC(=O)N([C@@H](C)CO)C[C@@H](C)[C@H](CN(C)Cc2ccc(-c4ccccc4)cc2)O3)cc1	-20	-15
COc1ccc(S(=O)(=O)Nc2cccc3c2O[C@@H](CN(C)C(=O)Nc2ccc(F)cc2)[C@@H](C)CN([C@@H](C)CO)C3=O)cc1	23	13
COc1ccccc1-c1cnc2c(c1)C(=O)N([C@H](C)CO)C[C@H](C)[C@@H](CN(C)CC1CCOCC1)O2	11	1

Continuation:
SMILES	Vaccinia inh	Vaccinia inh Venus
C[C@H](O)C#Cc1ccc([C@H]2[C@@H](CO)N3CCCCN(CC4CCOCC4)C[C@H]23)cc1	21	11
CN(C)c1ccc2c(c1)[C@H]1C[C@H](CC(=O)NCc3ccccn3)O[C@H](CO)[C@H]1O2	-1	7
COc1cccc(S(=O)(=O)N2[C@@H]3CNC[C@H]2C3c2ccc(-c3ccccc3F)cc2)c1 (stereo partly drawn)	10	24
COc1cc(OC)c(CNS(=O)(=O)c2ccc(Br)cc2)c(OC)c1	7	17
C[C@H](CO)N1C[C@H](C)[C@H](CN(C)Cc2cccc(F)c2)Oc2ncc(C3=CCCCC3)cc2C1=O	-12	-14
O=C(C[C@H]1CC[C@H]2[C@@H](COC[C@@H](O)CN2Cc2cccc(C(F)(F)F)c2)O1)NCc1ccc(F)cc1	-26	-22
COc1cccc(S(=O)(=O)N[C@H]2CC[C@@H](CCNC(=O)Cc3ccncc3)O[C@@H]2CO)c1	5	11
C[C@H](CO)N1C[C@H](C)[C@@H](CN(C)S(=O)(=O)c2ccc(Cl)cc2)Oc2ccc(NS(=O)(=O)c3cn(C)cn3)cc2C1=O	10	9
O=C(C[C@H]1CC[C@@H](NS(=O)(=O)c2ccc(F)cc2)[C@H](CO)O1)NCc1ccc(Cl)c(Cl)c1	-11	-7
C[C@@H]1CCCCO[C@H](CN(C)C(=O)Nc2cccc3ccccc23)[C@H](C)CN([C@H](C)CO)C(=O)c2cc(NS(=O)(=O)c3ccc(F)cc3)ccc2O1	4	5
C[C@H]1CN([C@@H](C)CO)C(=O)c2cc(NC(=O)CCN3CCOCC3)ccc2O[C@H]1CN(C)S(=O)(=O)c1ccccc1	-1	1
C[C@H]1CN([C@@H](C)CO)C(=O)CCCn2nncc2CO[C@H]1CN(C)C(=O)Oc1ccc2ccccc2c1	23&9	6&11
Cc1ccc(S(=O)(=O)N(C)C[C@@H]2OCCCC[C@H](C)Oc3ccc(NS(=O)(=O)c4ccccc4)cc3C(=O)N([C@@H](C)CO)C[C@@H]2C)cc1	?	·
O=C(c1cnccn1)N1CC(=O)N2[C@H](C1)[C@@H](c1ccc(C#CC3CCCC3)cc1)[C@@H]2CO	-5	-5

These rows are one share of the data. The share of hits here may be higher or lower than overall.
